# Screens (PubChem BioAssay)
# Mtb MbtI inh – inhibitors of Mycobacterium tuberculosis siderophore enzyme MbtI; P9WFX0; 100,000 compounds, 0.89% hits; AID 493033; inhibition, %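 (about 17 µg/mL by stock and volumes)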; purified MbtI enzyme, fluorescence intensity read-out;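 active = above 50% in both replicates, above 80% if mildly self-fluorescent; inactive = the rest, strongly fluorescent compounds included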;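 also: 0% = mean of negative and 100% = mean of positive controls; one replicate is shown; some compounds called inactive have numbers as strong as hits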
# Target sequence (P9WFX0 whole entry, looked up): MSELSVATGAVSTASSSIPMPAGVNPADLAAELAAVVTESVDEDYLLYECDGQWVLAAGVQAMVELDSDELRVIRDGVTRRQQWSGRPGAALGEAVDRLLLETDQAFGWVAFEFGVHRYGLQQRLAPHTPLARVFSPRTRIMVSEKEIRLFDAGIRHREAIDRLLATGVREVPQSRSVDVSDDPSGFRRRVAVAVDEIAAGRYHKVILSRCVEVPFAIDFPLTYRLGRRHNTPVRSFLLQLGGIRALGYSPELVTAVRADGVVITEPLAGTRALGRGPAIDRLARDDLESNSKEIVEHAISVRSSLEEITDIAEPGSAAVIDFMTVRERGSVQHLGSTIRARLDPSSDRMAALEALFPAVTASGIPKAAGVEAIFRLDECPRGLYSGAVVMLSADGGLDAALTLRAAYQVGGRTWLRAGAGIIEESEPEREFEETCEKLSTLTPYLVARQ
# MenB inh – blocks the Mycobacterium tuberculosis MenB enzyme | P9WNP5 | MenB enzyme assay, absorbance read-out; some hits fall short of the stated cut | inhibition, %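 (about 12 µg/mL by stock and volumes)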 | 100,000 compounds, 0.43% hits | AID 540299;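 active = mean of two replicates above 30%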;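 also: 0% = no compound and 100% = wells with inactive enzyme; the first replicate is given; strong numbers were not always called active; inactives centre near -10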
# PV pol inh – poliovirus RNA polymerase inhibition; P03300; poliovirus polymerase elongation, fluorescence polarization; stronger effect = lower value; 150,000 compounds, 0.66% hits; % elongation, % (compound at 16.7 µg/mL); AID 588519; in the data active = % elongation below about 90%; also: some results filed as inactive read as strong as hits
# Target sequence (P03300 1749-2209 limits assumed): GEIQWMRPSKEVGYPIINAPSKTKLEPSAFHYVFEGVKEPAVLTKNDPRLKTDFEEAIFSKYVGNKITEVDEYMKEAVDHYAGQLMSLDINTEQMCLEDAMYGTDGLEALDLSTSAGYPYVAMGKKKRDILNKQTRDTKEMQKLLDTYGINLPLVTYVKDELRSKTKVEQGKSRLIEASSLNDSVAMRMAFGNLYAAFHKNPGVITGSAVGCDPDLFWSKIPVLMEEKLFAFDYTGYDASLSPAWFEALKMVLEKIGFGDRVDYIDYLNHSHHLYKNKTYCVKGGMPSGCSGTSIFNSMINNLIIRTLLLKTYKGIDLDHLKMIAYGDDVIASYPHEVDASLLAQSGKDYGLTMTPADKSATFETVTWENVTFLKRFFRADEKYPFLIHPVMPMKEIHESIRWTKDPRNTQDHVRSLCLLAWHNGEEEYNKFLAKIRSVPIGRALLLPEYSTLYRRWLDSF
# PV pol inh intensity – further read-out of PV pol inh, marked with its call; % elongation; measured here: total intensity read-out; formula for this scale not given here;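 total fluorescence in place of polarization; lower means less elongation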
# The depositor's hits bear a star; nt = no result given; & = joins results of further samples. This is a random part of the collection; overall some 1.7% were active at least once.
SMILES,Mtb MbtI inh,MenB inh,PV pol inh,PV pol inh intensity
CN(CCc1ccccn1)C(=O)c1cc(-c2cccs2)nc2ccccc12,90.7,nt,102.0,106.0
Cc1cc(C)nc(NCCC(=O)O)n1,-83.2,-16.2,100.0,102.0
COc1ccc2nc(Cl)c(C#N)cc2c1,-6.3,0.6,101.0,101.0
CC(=O)Nc1nonc1Nc1csc(CC#N)n1,nt,-0.8,116.0,123.0
O=C(COc1ccccc1F)NCCc1ccc2c(c1)OCCO2,-8.7,-15.1,102.0,107.0
Cc1cc(NC(=O)CSCC(=O)N2CCN(c3ccccc3)CC2)no1,-4.2,-16.4,101.0,94.0
C=CCSc1nc(O)c(CC)c(=O)n1-c1ccccc1,3.4,-27.0,103.0,101.0
COC(=O)C(CC(C)C)NC(=O)c1cc(-c2ccccc2)nc2ccccc12 (configuration not stated),22.1,-8.1,99.0,100.0
O=C(O)CCN1C(=O)/C(=C\c2ccccc2)SC1=S,3.8,-64.5,107.0,100.0
COc1ccc(/C=C/C(=O)NCc2ccco2)cc1OC,-10.2,nt,100.0,96.0
CCCNC(=O)CN=C1NS(=O)(=O)C(c2ccc(C)cc2)=C1CC,-5.7,5.7,104.0,105.0
COc1cc(OC)c(NC(=O)Cn2ncc3c(=O)oc4ccc(C)cc4c32)cc1Cl,-3.4,-36.4,100.0,102.0
COc1cccc(C(=O)Nc2ccccc2Cl)c1,-0.1,3.3,106.0,107.0
CCCCn1c(SCC(=O)OC)nc2ccccc2c1=O,-10.8,-8.2,101.0,99.0
COc1ccc(Cc2nccc3cc(OC)c(OC)cc23)cc1OC,-10.2&-16.5,-6.0&-3.9,101.0&100.0,102.0&101.0
CN(C)c1ccc(C2=CC(C3CC3)=C(C#N)C(=C(C#N)C#N)N2)cc1,2.2,-52.4,94.0,112.0
N#CCCn1cc(C(=O)CSc2nnc(-c3ccccc3Cl)n2C2CCCC2)c2ccccc21,-3.3,-39.0,103.0,102.0
O=C1C(Sc2ncn[nH]2)=C/C(=N/S(=O)(=O)c2ccc(F)cc2)c2ccccc21,97.9,-5.8,88.0*,87.0*
CCOc1ccccc1NC(=O)COC(=O)c1cc(Cl)ccc1Cl,-6.3,nt,102.0,107.0
COc1ccc(CC(=O)Nc2ccc(O)c(-c3nc4ccccc4o3)c2)cc1,-1.7,-28.1,102.0,101.0
O=C(COc1ncnc2sccc12)N1CCCCC1,20.9,12.6,101.0,98.0
CC(C)(COC(=O)c1ccccc1)N=C1NS(=O)(=O)c2ccccc21,nt,-0.5,96.0,98.0
COc1ccc(CN(Cc2cc(OC)c(OC)c(OC)c2)C(=O)C(C)(C)C)cc1,-4.8,-32.9,99.0,96.0
COc1ccc(Nc2nc(N)nc(CN3CC(C)CC(C)C3)n2)cc1 (configuration not stated),-3.0,10.9,99.0,102.0
O=C(Cn1ncc2c3ccccc3n(Cc3ccccc3)c2c1=O)NC1CC1,17.9,0.3,102.0,106.0
O=C(NCC1CCCO1)c1cn(-c2ccccc2)nc1-c1cccs1 (configuration not stated),-21.2,nt,101.0,106.0
O=C(O)CCCC(=O)Nc1ccccc1SCc1noc(-c2cccs2)n1,-0.2,-22.9,103.0,103.0
Cc1ccc(/C=N/NC(=O)CCc2c(C)n[nH]c2C)cc1,10.1,-21.5,103.0,101.0
CC(NC(=O)Nc1cccc(Cl)c1Cl)c1ccc2c(c1)OCO2 (configuration not stated),-8.7,-20.0,101.0,101.0
N#Cc1ccc(-c2ccc3c(c2)OCCO3)[nH]c1=S,35.9,-18.7,112.0,115.0
CC1CN(C(=O)C(C)OC(=O)c2ccc(-c3ccccc3)cc2)CC(C)O1 (configuration not stated),-8.1,-35.6,107.0,99.0
Cc1ccc(NC(=O)CN(C)C(=O)CSc2nc(C)cs2)cc1,3.8,-0.3,105.0,104.0
O=C(CSc1ccc(Cl)cc1)c1cccs1,49.0,-17.7,112.0,106.0
COc1cc2c(C#N)c(N(C)CCc3ccc(OC)c(OC)c3)nc(N)c2c(N)n1,-71.1,5.4,125.0,165.0
Cc1c(C(=O)N2CCCCCC2)sc2ncnc(N3CCN(c4ccccc4)CC3)c12,-9.3,-5.6,104.0,106.0
CCCn1c2c(c(=O)[nH]c1=O)C(=O)C(C)N2 (configuration not stated),-4.7,-3.6,nt,nt
O=C(CSc1ccccn1)NCc1ccc2c(c1)OCO2,-2.4,-4.2,101.0,101.0
CCC1SC(=NC(=O)c2cccs2)NC1=O (configuration not stated),21.2,13.6,101.0,101.0
Cc1ccccc1-c1nnc(SC(C)C)o1,-4.0,0.2,104.0,105.0
CCOc1cc(C)c(Cl)cc1S(=O)(=O)n1nnc2ccccc21,-8.2,-60.2,99.0,102.0
COC(=O)C(CC(C)C)NC(=O)c1ccc(OC(C)=O)cc1 (configuration not stated),-2.0,-24.0,100.0,101.0
COC(=O)C1C(=O)CC(C)(O)C(C(=O)OC)C1c1ccccc1 (configuration not stated),nt,-14.9,105.0,106.0
O=C(/C=C/Nc1ccccc1F)c1cccs1,-1.4,-219.6,103.0,103.0
O=C(O)CSc1nnc2c(n1)[nH]c1ccccc12,1.1,-33.9,101.0,99.0
O=C(NCc1ccco1)c1ccc(CSc2nc3ccncc3n2Cc2ccccc2)cc1,15.2,-37.5,101.0,100.0
Cc1ccccc1NC(=O)Cn1c(=O)n(C2CCCCC2)c(=O)c2cccnc21,-6.1,-19.1,103.0,103.0
O=C(CN1CC(=O)Nc2ccccc21)Nc1ccc(S(=O)(=O)N2CCCC2)cc1,-26.6,-18.1,101.0,103.0
COc1ccccc1NC1CCCCC1NS(=O)(=O)c1ccccc1 (configuration not stated),-1.9,1.4,105.0,104.0

# Shown with values under each structure: part of the list above
# Fields: Mtb MbtI inh, MenB inh, PV pol inh, PV pol inh intensity
CC(NC(=O)Nc1cccc(Cl)c1Cl)c1ccc2c(c1)OCO2 (configuration not stated)
  -8.7, -20.0, 101.0, 101.0
N#Cc1ccc(-c2ccc3c(c2)OCCO3)[nH]c1=S
  35.9, -18.7, 112.0, 115.0
CC1CN(C(=O)C(C)OC(=O)c2ccc(-c3ccccc3)cc2)CC(C)O1 (configuration not stated)
  -8.1, -35.6, 107.0, 99.0
Cc1ccc(NC(=O)CN(C)C(=O)CSc2nc(C)cs2)cc1
  3.8, -0.3, 105.0, 104.0
O=C(CSc1ccc(Cl)cc1)c1cccs1
  49.0, -17.7, 112.0, 106.0
COc1cc2c(C#N)c(N(C)CCc3ccc(OC)c(OC)c3)nc(N)c2c(N)n1
  -71.1, 5.4, 125.0, 165.0
Cc1c(C(=O)N2CCCCCC2)sc2ncnc(N3CCN(c4ccccc4)CC3)c12
  -9.3, -5.6, 104.0, 106.0
CCCn1c2c(c(=O)[nH]c1=O)C(=O)C(C)N2 (configuration not stated)
  -4.7, -3.6, nt, nt
O=C(CSc1ccccn1)NCc1ccc2c(c1)OCO2
  -2.4, -4.2, 101.0, 101.0
CCC1SC(=NC(=O)c2cccs2)NC1=O (configuration not stated)
  21.2, 13.6, 101.0, 101.0
Cc1ccccc1-c1nnc(SC(C)C)o1
  -4.0, 0.2, 104.0, 105.0
CCOc1cc(C)c(Cl)cc1S(=O)(=O)n1nnc2ccccc21
  -8.2, -60.2, 99.0, 102.0
COC(=O)C(CC(C)C)NC(=O)c1ccc(OC(C)=O)cc1 (configuration not stated)
  -2.0, -24.0, 100.0, 101.0
COC(=O)C1C(=O)CC(C)(O)C(C(=O)OC)C1c1ccccc1 (configuration not stated)
  nt, -14.9, 105.0, 106.0
O=C(/C=C/Nc1ccccc1F)c1cccs1
  -1.4, -219.6, 103.0, 103.0
O=C(O)CSc1nnc2c(n1)[nH]c1ccccc12
  1.1, -33.9, 101.0, 99.0
O=C(NCc1ccco1)c1ccc(CSc2nc3ccncc3n2Cc2ccccc2)cc1
  15.2, -37.5, 101.0, 100.0

# Carrying on:
SMILES,Mtb MbtI inh,MenB inh,PV pol inh,PV pol inh intensity
O=C(O)/C=C/c1ccc(Cl)cc1,-3.2,-0.9,103.0,106.0
CC(C)(C)NC(=O)c1sccc1C(=O)O,3.2,-12.2,99.0,96.0
CCOc1ccc(OCc2ccc(C(=O)NCc3cccnc3)o2)cc1,-2.5,11.9,99.0,104.0
Nc1nc2c3ccccc3nc(C3CC3)n2n1,56.3,-9.3,102.0,104.0
NNC(=O)c1cc(COc2c(Cl)cccc2Cl)on1,-9.6,-20.9,106.0,115.0
CCN1CCCC1CNC(=O)c1ccccc1Oc1ccccc1 (configuration not stated),7.5,-0.1,104.0,99.0
S=C(NCCN1CCOCC1)Nc1ccc(Cl)cc1,2.7,-19.4,102.0,97.0
Brc1ccc(OCc2nnc3n2CCC3)cc1,-17.0,nt,104.0,105.0
CC(C)C(NS(=O)(=O)c1ccc2c(c1)C(C)(C)C(=O)N2C)C(=O)NCc1ccc(F)cc1 (configuration not stated),-3.6,-11.4,102.0,104.0
O=C(CCc1nc2cccnc2n1Cc1cccs1)Nc1ccc2c(c1)OCCO2,4.2,-15.7,100.0,112.0
Cc1ccc(-c2onc3ccc(C(=O)O)cc23)cc1,9.6,17.0,99.0,104.0
Cc1ccccc1NC(=O)c1[nH]cnc1C(=O)NN,2.0,-11.3,104.0,102.0
CCC1=C(c2ccc(C)cc2)S(=O)(=O)N=C1N1CCC(C(=O)NC2CC2)CC1,-4.2,-1.5,101.0,102.0
COc1ccc(NC(=S)NCC2CCCO2)cc1 (configuration not stated),18.0,-9.0,99.0,94.0
N#Cc1cc2ccc(O)cc2oc1=N,-342.0,-79.8,81.0,175.0
COc1ccc(CN2C(=O)c3cccnc3C2=O)cc1S(=O)(=O)NCc1ccc(C)cc1,-12.8,-15.9,102.0,103.0
COc1cc2ccccc2cc1C(=O)OCC(=O)NC1CC1,60.3,nt,99.0,101.0
Cc1ccc(S(=O)(=O)N2CCOC2=O)cc1,-13.9,nt,103.0,106.0
O=C1Nc2ccccc2C(=O)C1=Ic1ccccc1,-7.8,15.0,106.0,105.0
Cc1ccc(N=C2SC(C(=O)Nc3cccc(C#N)c3)C(N)=C2C(=O)N2CCCC2)c(C)c1 (configuration not stated),2.2,-39.5,106.0,100.0
CC1=CC(C)C(C2OC(C)C(C)O2)C(C)C1 (configuration not stated),-3.4,-60.9,102.0,104.0
O=C(NNc1ccccc1C(F)(F)F)c1cccs1,4.1,-5.7,105.0,105.0
CN(C)C(=O)COC(=O)c1ccc(-c2ccc(C(=O)OCC(=O)N(C)C)s2)s1,-13.8,0.9,103.0,114.0
Cc1cc(C(=O)CCC(=O)O)ccc1F,0.8,5.3,103.0,105.0
COC(=O)Cn1cc(C(=O)OC)c2ccccc21,-3.8,12.0,102.0,103.0
O=C1OCCC1Sc1nc2ccccc2[nH]1 (configuration not stated),19.9,7.3,103.0,99.0
CCOC(=O)Cn1c(=O)c(-c2nc(C(C)(C)C)cs2)cn(C(C)C)c1=O,107.1,-38.3,104.0,103.0
O=C(CSc1cccc[n+]1[O-])N1c2ccccc2Sc2ccccc21,-3.6,nt,100.0,106.0
CC(=O)N1CC(=O)N/C(=C\c2cccnc2)C1=O,11.4,-17.0,101.0,95.0
Nc1ccc(NS(=O)(=O)c2ccccc2)cc1,-1.8,-8.9,102.0,103.0
Cc1onc(-c2ccccc2Cl)c1C(=O)N1CCN=C1SCc1ccccc1F,-2.5,-14.6,104.0,107.0
CNc1ccc(O)cc1,101.3*,nt,59.0*,59.0*
Cn1c2ccccc2c2c(C(=O)NCc3ccco3)cn(C3CCCCC3)c(=O)c21,117.7,6.3,99.0,104.0
O=C(O)c1[nH]c2ccccc2c1C=NCc1ccccc1Cl,3.7,-5.4,103.0,108.0
CC1CC(=O)Nc2ccccc2N1S(=O)(=O)c1ccc(C(F)(F)F)cc1 (configuration not stated),0.4,-12.0,104.0,101.0
Oc1ccc(O)c(C2CC3CCC2C3)c1 (configuration not stated),102.5*,-30.2,99.0,105.0

# Some entries already given, reduced to PV pol inh.
Compound	PV pol inh
O=C(CSc1cccc[n+]1[O-])N1c2ccccc2Sc2ccccc21	100.0
CC(=O)N1CC(=O)N/C(=C\c2cccnc2)C1=O	101.0
